gsp ag: agonists of gsp mutant (McCune-Albright syndrome); gsp mutant cells, cAMP HTRF, 30 min; control for the full effect not named in the record; Potency, µM (highest dose often 76.9 µM), inactives show at the highest dose activation (cAMP increase), actives largely listed as activators; 0.13% of 340,000 active; AID 624287; active = well fitted activation curve with a large enough effect; inconclusive = small, poorly fitted or top-dose-only effect, or another doubt; inactive = no such curve, though single readings can be large or run the other way; cell line not stated here;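 further: phosphodiesterase inhibitor Ro 20-1724 added with compounds to block cAMP breakdown; potency means the concentration at half of the fitted maximal effect; nearly all actives have a fitted effect of over 60% in size; about a fifth of the inactives were tested at one dose only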
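Cells stably selected in G418 were plated at 2000/well, grown 16-24 hr, then given compounds in DMSO with the PDE inhibitor […] (300 uM solution added) for 30 min at 37C; cAMP was read by HTRF.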
Sfp PPTase inh: blocks B. subtilis Sfp PPTase activity. Q9F4F7. Biochemical Sfp PPTase activity, qHTS. Potency, µM, for inactives: max response, negative = inhibition, usual class: inhibitors. 3.5% of 310,000 active; active means well fitted inhibition curve with a large enough effect; inconclusive means small, poorly fitted or top-dose-only effect, or another doubt; inactive means no such curve, though single readings can be large or run the other way;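 further: the enzyme is Sfp with the accession as filed and its product quenches rhodamine fluorescence; potency means the concentration at half of the fitted maximal effect; 0% = enzyme reaction without inhibitor and -100% = no enzyme wells; top concentration of the series not given in the record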
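Compounds were incubated with enzyme (final 15 nM) for 15 min at room temperature before substrate addition started the reaction. Fluorescence at 525 nm excitation, 598 nm emission was recorded immediately and after 30 minutes.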
TRPV1 PAM: potentiators of human vanilloid receptor 1 (TRPV1). Q8NER1. TRPV1-expressing cells, Fluo-8 calcium influx, capsaicin EC20 potentiation; host cell line not named in the record; control for the full effect not named in the record. potentiation, % at 8.33 µM. 0.02% of 320,000 active; active means potentiation above 80%; inconclusive means 30% to 80%; inactive means below 30%; further: 0% is about no effect
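TRPV1-expressing cells were cultured overnight at 35.5C and loaded with Fluo-8 calcium dye for 40 to 90 min at room temperature. After a 10 s baseline, compound was added and calcium influx was read kinetically for 3 min (ex 480/em 520 nm).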
Menin-MLL FL inh: displaces fluorescein MLL peptide from human menin. Fluorescence polarization, fluorescein-MLL peptide displacement from menin. FP activity change, % at 61.4 µM. 290,000 tested, under 10 active; inconclusive = falling polarisation curve, or a change in total fluorescence; inactive = total fluorescence flat and polarisation flat or rising; no compound was filed as active; the % refers to the polarisation; negative = inhibition;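 further: % of control where 0% means no effect; inhibitors lower the polarisation; unlabelled MLL peptide was the positive control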
TRPML1 inh: human mucolipin-1 channel inhibition; Q9GZU1; AID 624415; activity change, negative = inhibition, % (test concentration not listed); TRPML1-inducible cells, Ca2+ dye fluorescence, FDSS; active compounds read low; inhibition of EC80 agonist-evoked calcium signal; 0.02% of 390,000 active; in the data active means activity change below about -50%; inconclusive means about -30% to -50%; inactive means above about -30%;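 further: stimulus is agonist 54-4 at its EC80 concentration; on the % scale 0 is the no-effect control and ±100 the full control effect; compound concentration not given in the record; the text of the record puts the active cut at -80%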
Target sequence (Q9GZU1 whole entry, looked up): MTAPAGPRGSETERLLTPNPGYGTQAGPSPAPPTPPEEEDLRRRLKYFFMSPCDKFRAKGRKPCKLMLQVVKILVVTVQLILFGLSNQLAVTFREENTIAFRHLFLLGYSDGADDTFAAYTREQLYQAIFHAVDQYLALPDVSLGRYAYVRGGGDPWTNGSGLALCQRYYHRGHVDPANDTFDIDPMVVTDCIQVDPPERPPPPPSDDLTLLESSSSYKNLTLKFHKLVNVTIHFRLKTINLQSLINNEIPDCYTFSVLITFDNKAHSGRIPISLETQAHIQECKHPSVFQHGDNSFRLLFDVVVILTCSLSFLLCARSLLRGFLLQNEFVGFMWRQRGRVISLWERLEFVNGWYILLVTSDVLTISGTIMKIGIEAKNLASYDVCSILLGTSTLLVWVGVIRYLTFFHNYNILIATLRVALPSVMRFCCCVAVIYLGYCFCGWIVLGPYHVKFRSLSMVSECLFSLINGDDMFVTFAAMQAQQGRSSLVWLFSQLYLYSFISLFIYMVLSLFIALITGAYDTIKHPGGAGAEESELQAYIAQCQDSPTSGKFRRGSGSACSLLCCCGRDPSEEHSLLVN
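Calcium fluorescence in TRPML1-DL cells induced overnight with Tet: a 110 s read after compound pin addition, then a 110 s antagonist read after challenge with 54-4 at 4 uM final (EC80).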
gsp antag: gsp mutant antagonism; Potency, µM (doses to about 76.9 µM), for the others: at the top dose activity change, negative = inhibition, hits mostly inhibitors; gsp-mutant cells, cAMP HTRF, 30 min; control for the full effect not named in the record; 0.4% of 340,000 active; active = falling curve of any shape with a large fitted effect; inconclusive = falling curve, mostly with a smaller effect; inactive = flat or rising curve; cell line not stated here;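 further: intracellular cAMP measured with PDE inhibitor Ro 20-1724 present during compound exposure; potency means the concentration at half of the fitted maximal effect; on the % scale 0 is the no-effect control and ±100 the full control effect; nearly all actives have a fitted effect of over 65% in size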
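HTRF cAMP read-out (cAMP-d2 plus anti-cAMP antibody-K in lysis buffer, 30 min RT). Before lysis, cells are exposed to compounds with […] for 30 min at 37C in DPBS containing Ca/Mg, BSA and Tween 20.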
ClpP mod: qHTS Assay for Activators of ClpP; ATP-dependent Clp protease proteolytic subunit (Bacillus subtilis (strain 168)), P80244; purified B. subtilis ClpP, FRET peptide cleavage, 20 min; Potency, µM (titrated, usually from 57.5 µM), inactives show top-dose activity change, negative = active; 1.9% of 340,000 active; AID 651965, 2013; active = well fitted falling curve with a large enough effect; inconclusive = small, poorly fitted or top-dose-only effect; inactive = no such curve, though single readings can be large or run the other way; further: potency means the concentration at half of the fitted maximal effect; the source files actives as falling curves though it sought activators and does not explain the sign; nearly all actives have a fitted effect of over 65% in size; many hits overshoot -100%
Target sequence (P80244 whole entry, looked up): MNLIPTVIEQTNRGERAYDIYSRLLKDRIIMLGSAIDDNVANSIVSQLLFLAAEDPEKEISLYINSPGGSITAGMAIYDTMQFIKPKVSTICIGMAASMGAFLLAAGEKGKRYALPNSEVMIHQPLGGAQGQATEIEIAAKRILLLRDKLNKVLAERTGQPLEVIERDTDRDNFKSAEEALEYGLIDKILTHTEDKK
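ClpP 10 microg/mL final, pH 8 Tris/KCl buffer with BSA, glycerol, Tween-20; compound pinned in; FRET-FV substrate; RT 20 min; Ex320/Em430; ΔFRET vs ADEP 5.8 microM, DMSO, no enzyme.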
Starred values were filed as active, the others as inactive; ? = inconclusive; / = not tested or not shown; & = joins results of further samples; [ ] = another dose, or the depositor's remark. Not a hit list. Share with any hit: about 4.9%.

SMILES	gsp ag	Sfp PPTase inh	TRPV1 PAM	Menin-MLL FL inh	TRPML1 inh	gsp antag	ClpP mod
Cc1ccc2cc(-c3noc(C4CCCCC4)n3)c(=O)[nH]c2c1	0.2%	8.0%	7.7	-1.6	-1.6	7.6%	-15.6%
CN(C(=O)COC(=O)c1cccnc1Nc1ccccc1F)C1CCS(=O)(=O)C1 (centres undefined)	-50.4%	7.3%	-22.1	8.3	-9.6	-0.3%	-1.4%
COc1ccccc1NS(=O)(=O)c1cccc(C(=O)NCc2ccncc2)c1	-14.6%	/	?	/	-2.6	10.3%	1.2%
CN(Cc1ccccc1)C(=O)COc1ccc(-c2nnco2)cc1	-0.8%	8.4%	-0.4	-2.7	-14.0	0.5%	-2.4%
CC(=O)c1ccc(S(=O)(=O)N2CCN(CCOc3ccc(Br)cc3)CC2)cc1	-2.5%	/	7.8	/	8.7	?	-3.0%
Cc1ccc(S(=O)(=O)c2c(N)n(-c3ccccc3)c3nc4ccccc4nc23)cc1	11.0%[15.4 µM]	1.7%	14.8	6.0	18.4	?	/
O=C(Nc1ccccc1C(=O)Nc1ccccn1)c1cccc([N+](=O)[O-])c1	-3.1%	-12.1%	-0.8	0.2	-3.1	-17.5%	-0.8%
O=S(=O)(c1cccc(-n2cnnn2)c1)N1CCOCC1	-3.3%	14.6%	-6.5	2.4	-4.8	-1.9%	-0.2%
COc1ccc2oc(C(=O)OCC(=O)N3CC(C)CC(C)C3)c(C)c2c1 (centres undefined)	5.4%	/	7.9	/	2.3	-3.5%	14.1µM*
COc1ccc(OC)c(N/C(C)=C/C(=O)c2ccc(Br)cc2)c1	-21.7%[15.4 µM]	-9.5%	-7.0	-1.1	-9.7	-16.1%	-2.3%
COc1cc(C)c2occ(/C(C)=N\O)c2c1	-12.1%	2.9%	-0.4	-0.4	38.8	8.3%	-3.5%
Cc1ccccc1OCCC(=O)Nc1ccccc1C(=O)N1CCCCC1	11.8%	/	-9.7	/	-3.7	9.6%	0.4%
COC(=O)c1ccc(N2CCOCC2)c(NC(=O)c2ccc(Br)o2)c1	4.7%	6.6%	-10.0	/	5.1	-6.0%	2.5%
O=C(CCN1CCN(S(=O)(=O)c2cccc([N+](=O)[O-])c2)CC1)Nc1ccccc1F	-35.5%	5.4%	-10.7	/	-1.0	1.7%	0.3%
O=C(N/N=C/c1ccccc1Cl)c1nc2ccc([N+](=O)[O-])cc2c(=O)[nH]1	-0.7%	24.4%	1.2	3.2	-0.7	6.1%	1.2%
COCCn1nnnc1C(c1ccc(OC)c(OC)c1)N1CCc2ccccc21 (centres undefined)	-30.6%[inhibitor]	16.7%	-9.9	-0.2	9.4	10.6%	0.1%
CCCc1ccc(-c2cc(C(=O)Nc3ccc([N+](=O)[O-])cn3)c3ccccc3n2)cc1	-7.7%	15.9%	23.3	2.2	-6.5	13.0%	-2.2%
CC(C)(C)[C@H]1COC(=O)[C@H](Cc2ccc(F)cc2)CC/C=C/C[C@@H](CC(=O)N[C@H](CO)Cc2ccccc2)C(=O)N1	/	/	/	/	1.8	12.2%	1.5%
COc1cc(NC(=O)CCN2CCN(C/C=C/c3ccccc3)CC2)cc(OC)c1	-2.0%	-4.5%	19.3	6.6	-5.0	3.1%	1.6%
CCSc1nnc(NS(=O)(=O)c2ccc(OC)cc2)s1	1.0%	11.8%	4.8	-3.1	-18.1	-23.7%	1.8%
O=C(CN1C(=O)C2(OCCO2)c2ccccc21)c1ccc(Br)cc1	17.4%	9.2%	4.4	1.9	6.2	-2.5%	-0.3%
COc1ccc(CN2CCN(c3ccccn3)CC2)c(OC)c1C	-12.7%&2.4%	?	/	3.8	13.6&7.4	2.1%&10.3%	-2.3%&-7.5%
O=C(O)c1ccccc1NC(=O)C(c1ccccc1)c1ccccc1	-16.6%	/	/	/	0.4	-26.3%	/
Cc1ccc(-c2ccc(SCC(=O)Nc3cc(C)on3)nn2)cc1	-0.2%[15.4 µM]	9.9%	-19.5	1.4	-9.2	0.8%	/
COc1ccc(NC2CC(=O)N(c3cccc(C)c3)C2=O)cc1 (centres undefined)	-3.0%	6.8%	17.4	4.2	31.6	-2.1%	-2.2%

Exported with values under each structure: 5 of the compounds above
Order of results – gsp ag, Sfp PPTase inh, TRPV1 PAM, Menin-MLL FL inh, TRPML1 inh, gsp antag, ClpP mod
COc1ccc(OC)c(N/C(C)=C/C(=O)c2ccc(Br)cc2)c1
 : -21.7%[15.4 µM], -9.5%, -7.0, -1.1, -9.7, -16.1%, -2.3%
COc1ccc2oc(C(=O)OCC(=O)N3CC(C)CC(C)C3)c(C)c2c1 (centres undefined)
 : 5.4%, /, 7.9, /, 2.3, -3.5%, 14.1µM*
COC(=O)c1ccc(N2CCOCC2)c(NC(=O)c2ccc(Br)o2)c1
 : 4.7%, 6.6%, -10.0, /, 5.1, -6.0%, 2.5%
CN(Cc1ccccc1)C(=O)COc1ccc(-c2nnco2)cc1
 : -0.8%, 8.4%, -0.4, -2.7, -14.0, 0.5%, -2.4%
O=C(O)c1ccccc1NC(=O)C(c1ccccc1)c1ccccc1
 : -16.6%, /, /, /, 0.4, -26.3%, /

Sorted by length of the SMILES (highest first): part of the list above
SMILES	gsp ag	Sfp PPTase inh	TRPV1 PAM	Menin-MLL FL inh	TRPML1 inh	gsp antag	ClpP mod
O=C(N/N=C/c1ccccc1Cl)c1nc2ccc([N+](=O)[O-])cc2c(=O)[nH]1	-0.7%	24.4%	1.2	3.2	-0.7	6.1%	1.2%
O=C(CN1C(=O)C2(OCCO2)c2ccccc21)c1ccc(Br)cc1	17.4%	9.2%	4.4	1.9	6.2	-2.5%	-0.3%
COc1ccc(NC2CC(=O)N(c3cccc(C)c3)C2=O)cc1 (centres undefined)	-3.0%	6.8%	17.4	4.2	31.6	-2.1%	-2.2%
O=S(=O)(c1cccc(-n2cnnn2)c1)N1CCOCC1	-3.3%	14.6%	-6.5	2.4	-4.8	-1.9%	-0.2%

Other records:
SMILES	gsp ag	Sfp PPTase inh	TRPV1 PAM	Menin-MLL FL inh	TRPML1 inh	gsp antag	ClpP mod
Cc1ccc(S(=O)(=O)N2CCCCC2)cc1NC(=O)CSc1nccn1C	9.7%[15.4 µM]	-10.8%	?	-3.3	20.7	/	/
NC(=O)C[n+]1cccc(C(N)=O)c1	18.9%[15.4 µM]	13.2%	-4.3	-17.4	4.2	11.5%	/
CCOC(=O)C1=C(C)Nc2ccccc2N=C1NC(=O)Cc1ccc(Cl)c(Cl)c1	-24.9%[15.4 µM]	3.4%	3.0	2.0	16.7	9.7%	/
Cc1ccc(/C=N/NC(=O)CSc2nc3ccccc3c(=O)n2-c2ccccc2)s1	-9.4%	?	-2.9	/	20.9	9.6%	0.9%
S=c1[nH]nc(COc2ccccc2)n1Cc1ccccc1	-60.8%	-13.0%	2.9	3.7	-5.6	8.5%	-2.2%
O=C(CSc1n[nH]c(-c2ccc(S(=O)(=O)N3CCCCC3)cc2)n1)Nc1nccs1	-10.3%	-9.1%	3.3	2.6	5.9	?	28.2µM*
Cc1cccc(NC(=S)NCCCN2CCOCC2)c1	?	14.1%	1.5	3.9	45.4	10.4%	-16.9%
CCOC(=O)C1CCCN(Cc2cc(=O)oc3cc(C)c(C)cc23)C1 (centres undefined)	24.0%[15.4 µM]	6.2%	-17.6	-0.5	3.4	/	/
COc1ccc(OC)c2nc(-c3ccncc3)ccc12	-2.6%	1.5%	24.3	2.6	/	9.7%	-1.1%
O=C1NC[C@H](Cc2ccccc2)N(C[C@H]2CCCN2C[C@H](Cc2ccccc2)N2C[C@H](Cc3ccccc3)N(CCc3ccccc3)C(=O)C2=O)C1=O	/	/	/	/	-11.4	?	0.8%
Cc1c(CBr)[n+](=O)c2c(n1[O-])C(Br)CCC2Br (centres undefined)	1.4%[15.4 µM]	11.2µM*	-11.6	-2.8	7.1	7.9%	/
CC(C)C[C@H](NC(=O)N1CCn2c1nc1ccccc12)C(=O)NCc1ccco1	23.0%	-3.8%	5.1	0.8	8.0	11.2%	0.4%
Cc1ccc(N/C(N)=N/c2nc3c(c(=O)[nH]2)CCCC3)c(C)c1	0.3%	18.6%	-6.9	10.7	0.3	8.5%	-1.9%
S=C1NC2(CCCC2)Nc2ccccc21	17.4%[15.4 µM]	-66.6%	-6.7	-0.2	3.7	10.1%	/
O=C(NCCS(=O)(=O)N1CCC2(CC1)OCCO2)c1ccc(F)cc1	-3.3%[15.4 µM]	/	13.8	/	1.6	-4.1%	/
COc1ccc(/C=C/C(=O)c2ccccc2O)cc1CN1CCOCC1	-4.7%	6.6%	-9.7	-1.6	-19.7	4.7%[15.4 µM]	-4.0%
S=C(NCCc1ccccc1)Nc1cccc2cnccc12	19.8%[15.4 µM]	50.1µM*	-29.1	-1.3	1.0	-10.8%	/
CCOC(=O)c1sc(=NC(=O)c2ccc(OC(C)C)cc2)n(C)c1C	50.5%[15.4 µM]	7.5%	9.7	-3.1	19.2	5.7%	/
COc1ccc(N(CC(=O)Nc2cc(OC)ccc2OC)S(=O)(=O)c2c(C)noc2C)cc1	14.7%	18.0%	-11.6	/	13.2	-6.9%	0.3%
COc1cccc(N2C(=NC(=O)COc3ccccc3)SC3CS(=O)(=O)CC32)c1 (centres undefined)	?	11.9%	10.1	/	39.2	17.0%	0.7%
C/C(=N\NC(=O)CSc1nc(C)cc(C)n1)c1cccs1	29.1%	7.2%	-6.5	2.9	-8.4	9.5%	/
CCCCCC(=O)N1C[C@H](O)[C@@H](n2cc(C3CC3)nn2)C[C@@H]1c1ccc(C)cc1	-25.8%	/	/	/	6.0	/	0.7%
CCOCC(=O)Nc1cc(OC)c(Cl)cc1OC	0.5%	14.0%	-16.7	7.8	5.3	-1.7%	0.0%
CCCCn1nc(C(=O)Nc2cccc(C(=O)NC3CC3)c2)c2ccccc2c1=O	-9.8%	/	-5.5	/	-6.8	?	1.4%
CCN(C(=O)CSc1nnc2nc(C)cc(C)n12)c1ccccc1	-10.9%[15.4 µM]	10.7%	-3.8	2.2	-8.8	4.3%	-1.8%

High-throughput results deposited in PubChem by National Center for Advancing Translational Sciences (NCATS).
